Screening data from PubChem BioAssay.
KCNQ2 inh: KCNQ2 channel blockers in CHO-K1 cells – cell-based, FluxOR thallium flux, B-score, primary screen (AID 2156); B-score at 10 µM; O88943; actives 1.1% (n = 310,000); 20 min; active compounds read low; only compounds with negative scores are shown here; some inactives read as strong as hits;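 active = fluorescence ratio B-score at most minus 3 library SDs, with starting brightness B-score within 2 library SDs, cut at about -5.5 in these data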
Target sequence (O88943 whole entry, looked up): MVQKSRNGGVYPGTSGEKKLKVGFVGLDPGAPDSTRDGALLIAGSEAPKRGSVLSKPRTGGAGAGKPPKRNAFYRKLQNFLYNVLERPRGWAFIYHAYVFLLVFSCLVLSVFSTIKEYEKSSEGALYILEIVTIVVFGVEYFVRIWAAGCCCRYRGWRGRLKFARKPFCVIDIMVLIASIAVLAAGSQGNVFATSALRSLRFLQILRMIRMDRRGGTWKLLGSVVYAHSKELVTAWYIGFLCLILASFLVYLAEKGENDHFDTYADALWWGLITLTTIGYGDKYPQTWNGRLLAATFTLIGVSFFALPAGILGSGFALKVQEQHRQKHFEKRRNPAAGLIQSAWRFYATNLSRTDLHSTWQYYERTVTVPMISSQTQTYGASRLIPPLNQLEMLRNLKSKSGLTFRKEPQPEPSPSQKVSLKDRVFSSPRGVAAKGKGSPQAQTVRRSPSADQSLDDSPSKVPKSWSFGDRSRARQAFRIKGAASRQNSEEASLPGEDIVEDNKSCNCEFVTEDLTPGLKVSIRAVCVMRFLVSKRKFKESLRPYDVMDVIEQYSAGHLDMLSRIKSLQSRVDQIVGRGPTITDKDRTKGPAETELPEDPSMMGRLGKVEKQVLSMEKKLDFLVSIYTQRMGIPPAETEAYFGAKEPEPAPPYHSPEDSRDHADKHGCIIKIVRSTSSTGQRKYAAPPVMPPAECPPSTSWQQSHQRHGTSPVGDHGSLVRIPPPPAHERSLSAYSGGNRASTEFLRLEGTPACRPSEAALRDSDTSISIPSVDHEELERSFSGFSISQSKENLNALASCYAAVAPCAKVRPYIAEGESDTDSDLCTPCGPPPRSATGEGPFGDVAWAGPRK
KCNQ2 inh baseline: also measured in KCNQ2 inh; calls as there; B-score; measured here: initial fluorescence intensity artifact check;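 brightness before thallium and not channel activity; 0 = typical well and far values either way flag optical interference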
The depositor's hits bear a star. A portion of the library; rates above refer to the full screens.

Results for CCc1nnc(NC(=O)CSc2nnc(C)c(=O)n2N)s1 ?
KCNQ2 inh: inactive; KCNQ2 inh baseline: -0.03

Results for Cc1ccnc(NS(=O)(=O)c2ccc(N3C(=O)Nc4ccccc4N3O)cc2)c1 ?
KCNQ2 inh: inactive; KCNQ2 inh baseline: -0.5

How did CN1CCN(/N=C/c2ccc(-c3ccc([N+](=O)[O-])cc3Cl)o2)CC1 do in these assays?
KCNQ2 inh: inactive; KCNQ2 inh baseline: -0.55

How did Cc1ccccc1CN1CCNC(=O)C1CC(=O)NC1CCCCCCC1 (configuration not stated) do in these assays?
KCNQ2 inh: inactive; KCNQ2 inh baseline: 1

How did O=C(N/N=C/c1ccoc1)c1cc(Br)ccc1O do in these assays?
KCNQ2 inh: inactive; KCNQ2 inh baseline: 0.67

What do the screens show for `CC(=O)Oc1ccc2c(=O)oc(-c3ccccc3)nc2c1`?
KCNQ2 inh: inactive; KCNQ2 inh baseline: 0.81

Results for COCCn1c(SCC(=O)NCc2ccco2)nc2cccnc21 ?
KCNQ2 inh: inactive; KCNQ2 inh baseline: 0.24

Results for CN(CC(=O)NCc1ccc(F)cc1)CC(=O)Nc1ccc(Cl)c(C(F)(F)F)c1 ?
KCNQ2 inh: inactive; KCNQ2 inh baseline: -0.36

What do the screens show for `CCCCOc1ccc(C(O)C(CN2CCOCC2)c2ccccc2)cc1` (configuration not stated)?
KCNQ2 inh: inactive; KCNQ2 inh baseline: 0.43

How did CCCn1nnnc1SCC(=O)Nc1ccc(F)cc1 do in these assays?
KCNQ2 inh: inactive; KCNQ2 inh baseline: 0.13

How did COc1cc(OC)c(S(=O)(=O)NC(C)C)cc1S(=O)(=O)NC(C)C do in these assays?
KCNQ2 inh: inactive; KCNQ2 inh baseline: -0.36

What do the screens show for `Cc1cccc(NC(=O)c2cc3ccccc3o2)c1`?
KCNQ2 inh: inactive; KCNQ2 inh baseline: -0.8

Results for Cc1ccc(OCC(=O)Nc2cc(S(=O)(=O)N3CCOCC3)ccc2Cl)c([N+](=O)[O-])n1 ?
KCNQ2 inh: inactive; KCNQ2 inh baseline: -0.55

Results for CCn1c(COc2ccc(Cl)cc2)nnc1SC1CCc2ccccc2C1=O (configuration not stated) ?
KCNQ2 inh: inactive; KCNQ2 inh baseline: -0.4

How did CC(C)CCn1c(CN2CC(C)OC(C)C2)nc2c1c(=O)n(C)c(=O)n2C (configuration not stated) do in these assays?
KCNQ2 inh: inactive; KCNQ2 inh baseline: -1.2

Results for O=C(CSc1ncnc2ccccc12)Nc1ccc2c(c1)OCCO2 ?
KCNQ2 inh: inactive; KCNQ2 inh baseline: 0.92

What do the screens show for `Cc1nn(CC(=O)NCC(C)c2ccccc2)c(=O)c2cc(-c3ccccc3)nn12` (configuration not stated)?
KCNQ2 inh: inactive; KCNQ2 inh baseline: 0.32

Results for COc1ccc(NC(=S)NC(=O)/C=C/c2cccs2)cc1 ?
KCNQ2 inh: inactive; KCNQ2 inh baseline: -0.13

Results for O=C(O)c1cc(-c2cccs2)nc2ccc(F)cc12 ?
KCNQ2 inh: inactive; KCNQ2 inh baseline: 0.66

What do the screens show for `COc1ccc(-c2[nH]ncc2N=Nc2cc(C)cc(C)c2)cc1`?
KCNQ2 inh: inactive; KCNQ2 inh baseline: 0.53

Results for CC(C)C(c1nnnn1C(C)(C)C)N1CCOCC1 (configuration not stated) ?
KCNQ2 inh: inactive; KCNQ2 inh baseline: -0.09

What do the screens show for `COc1ccc(-c2nnn(CC(=O)NCc3ccc4c(c3)OCO4)n2)cc1OC`?
KCNQ2 inh: inactive; KCNQ2 inh baseline: -1.33

Results for O=C1NC(=Nc2cccnc2)S/C1=C\c1cccc(F)c1 ?
KCNQ2 inh: inactive; KCNQ2 inh baseline: 0.1

What do the screens show for `O=C(CCCc1c[nH]c2ccccc12)NCc1ccccc1C(F)(F)F`?
KCNQ2 inh: inactive; KCNQ2 inh baseline: -0.85

What do the screens show for `CCn1cc(CNc2nc3nonc3nc2N2CCCCC2)cn1`?
KCNQ2 inh: inactive; KCNQ2 inh baseline: -0.42

Results for O=c1c2ccccc2nc2n1CCCS2 ?
KCNQ2 inh: inactive; KCNQ2 inh baseline: -0.69

How did CCOC(=O)c1cc(-c2ccccc2)n(CC(=O)Nc2cccc(OC)c2)c1C do in these assays?
KCNQ2 inh: inactive; KCNQ2 inh baseline: 1.39

What do the screens show for `COCc1cc(=O)[nH]c2cc(NC(=O)c3cccc(OC)c3)c(C)cc12`?
KCNQ2 inh: inactive; KCNQ2 inh baseline: -0.4

Results for COc1ccc(C)cc1COC(=O)c1[nH]c(C)c(C(C)=O)c1C ?
KCNQ2 inh: inactive; KCNQ2 inh baseline: 0.04

Results for O=C(O)c1ccccc1C(=O)Nc1ccc(Br)c2cccnc12 ?
KCNQ2 inh: inactive; KCNQ2 inh baseline: 0.85

What do the screens show for `CC(Sc1ccccc1)C(=O)N1CCN(S(=O)(=O)c2cccc(Br)c2)CC1` (configuration not stated)?
KCNQ2 inh: inactive; KCNQ2 inh baseline: -0.11

Results for CCOC(=O)CSC1=C(C#N)C(c2sccc2C)C(C(C)=O)=C(C)N1 (configuration not stated) ?
KCNQ2 inh: inactive; KCNQ2 inh baseline: 3.56

What do the screens show for `O=C(C(=O)N1CCOCC1)c1cn(CCOc2ccccc2)c2ccccc12`?
KCNQ2 inh: inactive; KCNQ2 inh baseline: -0.51

What do the screens show for `CCn1c2ccccc2c2cc(NC(=O)c3cccc(OC)c3)ccc21`?
KCNQ2 inh: inactive; KCNQ2 inh baseline: -1.64

What do the screens show for `COc1ccccc1-c1c(C)oc2cc(OCC(=O)OCc3ccccc3)ccc2c1=O`?
KCNQ2 inh: inactive; KCNQ2 inh baseline: -1.02

What do the screens show for `C=CCN(c1ccccc1C(=O)O)S(=O)(=O)/C=C/c1ccccc1`?
KCNQ2 inh: inactive; KCNQ2 inh baseline: 0.74

Results for Cn1c2c(c(=O)n(C)c1=O)C(c1ccc(C(F)(F)F)cc1)CC(=O)N2 (configuration not stated) ?
KCNQ2 inh: inactive; KCNQ2 inh baseline: 0.98

Results for C=CCn1cc(C(=O)OC)c(=O)c2cc(S(=O)(=O)N3CCC(C)CC3)ccc21 ?
KCNQ2 inh: inactive; KCNQ2 inh baseline: -0.76

What do the screens show for `CCOC(=O)Cn1nnnc1C(C(C)C)N(Cc1cc2c(C)cc(C)cc2[nH]c1=O)C1CCCC1` (configuration not stated)?
KCNQ2 inh: inactive; KCNQ2 inh baseline: 0.75

How did Oc1ccc(C=Nc2ccc(N3CCOCC3)cc2)c(O)c1 do in these assays?
KCNQ2 inh: inactive; KCNQ2 inh baseline: -0.86

What do the screens show for `Cc1nn(Cc2ccccc2Cl)c(C)c1NC(=O)c1ccn(C)n1`?
KCNQ2 inh: inactive; KCNQ2 inh baseline: 1.9

What do the screens show for `Cc1cc(C(=O)NCc2ccccc2F)cs1`?
KCNQ2 inh: inactive; KCNQ2 inh baseline: 0.68

How did CS(=O)(=O)N(CC(=O)NCCSc1ccccn1)c1ccc(F)cc1 do in these assays?
KCNQ2 inh: inactive; KCNQ2 inh baseline: 0.59

Results for CCOc1ccc2nc(N=NC3=C(O)CC(C)(C)CC3=O)sc2c1 ?
KCNQ2 inh: inactive; KCNQ2 inh baseline: 2.05

How did O=C(CN1C(=O)c2ccccc2S1(=O)=O)NC1CCCCC1 do in these assays?
KCNQ2 inh: inactive; KCNQ2 inh baseline: 1.16

How did O=C(CNC(=O)c1ccc(Br)o1)Nc1ccncc1 do in these assays?
KCNQ2 inh: inactive; KCNQ2 inh baseline: 2.97

Results for CC(=O)Nc1ccc(NC(=O)CSc2nnc(-c3cccs3)n2C)cc1 ?
KCNQ2 inh: inactive; KCNQ2 inh baseline: -0.28

How did O=C(c1cccc(Oc2ccc([N+](=O)[O-])cc2)c1)N1CCOCC1 do in these assays?
KCNQ2 inh: inactive; KCNQ2 inh baseline: 0.66

What do the screens show for `N#CCCN(C(=O)COC(=O)CCN=C1NS(=O)(=O)c2ccccc21)c1ccc(F)cc1`?
KCNQ2 inh: inactive; KCNQ2 inh baseline: -0.73

How did Cc1ccc(OCCCSc2n[nH]c(N)n2)cc1 do in these assays?
KCNQ2 inh: inactive; KCNQ2 inh baseline: 0.12

How did O=C(Cc1ccccc1)NNC(=O)c1ccc(NC(=O)c2ccccc2)cc1 do in these assays?
KCNQ2 inh: inactive; KCNQ2 inh baseline: 1.1

What do the screens show for `CC(=O)c1ccc(NC(=S)N2CCN(S(=O)(=O)c3ccc(F)cc3)CC2)cc1`?
KCNQ2 inh: inactive; KCNQ2 inh baseline: 0.84

Results for N/C(=N\OC(=O)Nc1ccccc1)c1ncc(C(F)(F)F)cc1Cl ?
KCNQ2 inh: inactive; KCNQ2 inh baseline: 0.04

Results for CN(C)c1[nH]c(=O)c(C#N)c2c1CCN2Cc1ccccc1 ?
KCNQ2 inh: inactive; KCNQ2 inh baseline: -0.08

What do the screens show for `CN(c1cccc(NC(=O)Cc2ccccc2)c1)S(C)(=O)=O`?
KCNQ2 inh: inactive; KCNQ2 inh baseline: 1.18

What do the screens show for `CC(=O)c1cccc(NC(=O)COC(=O)c2cccc(N3C(=O)c4ccccc4C3=O)c2)c1`?
KCNQ2 inh: inactive; KCNQ2 inh baseline: 1.79

What do the screens show for `COC(=O)c1ccc(COC(=O)c2ccc(SC)cc2OC)cc1`?
KCNQ2 inh: inactive; KCNQ2 inh baseline: 1.68

Results for CCOc1ccccc1NC(=O)c1ccccc1-c1nc(-c2ccccc2)no1 ?
KCNQ2 inh: inactive; KCNQ2 inh baseline: -2.48

What do the screens show for `O=C(c1cccc2ccccc12)n1nnc2ccccc21`?
KCNQ2 inh: inactive; KCNQ2 inh baseline: 0.87

What do the screens show for `O=[N+]([O-])c1ccc(N2CCSCC2)cc1O`?
KCNQ2 inh: inactive; KCNQ2 inh baseline: -1.17

Fetched by compound from the entries so far, four records:
What do the screens show for `O=[N+]([O-])c1ccc(N2CCSCC2)cc1O`?
KCNQ2 inh: inactive; KCNQ2 inh baseline: -1.17

What do the screens show for `O=C(c1cccc2ccccc12)n1nnc2ccccc21`?
KCNQ2 inh: inactive; KCNQ2 inh baseline: 0.87

What do the screens show for `CC(=O)c1cccc(NC(=O)COC(=O)c2cccc(N3C(=O)c4ccccc4C3=O)c2)c1`?
KCNQ2 inh: inactive; KCNQ2 inh baseline: 1.79

Results for CC(=O)Nc1ccc(NC(=O)CSc2nnc(-c3cccs3)n2C)cc1 ?
KCNQ2 inh: inactive; KCNQ2 inh baseline: -0.28

Of the compounds above, these have a cyano group.
Results for CCOC(=O)CSC1=C(C#N)C(c2sccc2C)C(C(C)=O)=C(C)N1 (configuration not stated) ?
KCNQ2 inh: inactive; KCNQ2 inh baseline: 3.56

What do the screens show for `N#CCCN(C(=O)COC(=O)CCN=C1NS(=O)(=O)c2ccccc21)c1ccc(F)cc1`?
KCNQ2 inh: inactive; KCNQ2 inh baseline: -0.73

Results for CN(C)c1[nH]c(=O)c(C#N)c2c1CCN2Cc1ccccc1 ?
KCNQ2 inh: inactive; KCNQ2 inh baseline: -0.08

(further entries)
What do the screens show for `Cc1ccc(C(=O)N/C(=C\c2ccccc2)C(=O)NCCN2CCOCC2)cc1`?
KCNQ2 inh: inactive; KCNQ2 inh baseline: -0.74

What do the screens show for `CCOC(=O)C1CCN(S(=O)(=O)c2ccc(-c3nc4ccccc4s3)s2)CC1`?
KCNQ2 inh: inactive; KCNQ2 inh baseline: -1.09

What do the screens show for `C=COC(=O)c1sc2nc(C)cc(C)c2c1N`?
KCNQ2 inh: inactive; KCNQ2 inh baseline: 1.54

What do the screens show for `CCOc1ccc(NC(=S)Nc2cc(C)[nH]n2)cc1`?
KCNQ2 inh: inactive; KCNQ2 inh baseline: -1.11

Results for CN(C)c1cccc(C(=O)OC(C(=O)Nc2ccc(Cl)cc2C(F)(F)F)c2ccccc2)c1 (configuration not stated) ?
KCNQ2 inh: -8*; KCNQ2 inh baseline: -0.72*

What do the screens show for `Cc1ccc(C)c(Cn2c(=O)n(CCC(=O)NCc3ccco3)c(=O)c3ccccc32)c1`?
KCNQ2 inh: inactive; KCNQ2 inh baseline: -2.61

Results for Cc1ccc(S(=O)(=O)N2C(=O)CCC2C(=O)O/N=C(\N)c2ccccc2)cc1 (configuration not stated) ?
KCNQ2 inh: inactive; KCNQ2 inh baseline: -1.99

What do the screens show for `C/C(=N\NC1=N[C@H]2CS(=O)(=O)C[C@H]2S1)c1ccccc1`?
KCNQ2 inh: inactive; KCNQ2 inh baseline: -0.01

Results for Cc1cc(C)c(C)c(S(=O)(=O)NCC(=O)Nc2ccccc2F)c1C ?
KCNQ2 inh: inactive; KCNQ2 inh baseline: 0.16

What do the screens show for `Cc1ccc(-n2nc(-c3cccnc3)cc2C(=O)N2CCOCC2)c(C)c1`?
KCNQ2 inh: inactive; KCNQ2 inh baseline: 1.13

Results for CN(C)S(=O)(=O)c1ccc(NC(=O)N2CCN(c3cccc(C(F)(F)F)c3)CC2)cc1 ?
KCNQ2 inh: inactive; KCNQ2 inh baseline: 1.84

Results for O=C(Nc1oc2ccc(Cl)cc2c(=O)c1-c1ccc(F)cc1)c1ccco1 ?
KCNQ2 inh: inactive; KCNQ2 inh baseline: -0.08

Results for O=C(c1cccc(COc2ccc(Cl)cc2Cl)c1)N1CCN(c2ccccn2)CC1 ?
KCNQ2 inh: inactive; KCNQ2 inh baseline: -2.74

Results for CC(=O)N1N=C2/C(=C/c3ccccc3)CCCC2C1c1ccccc1 (configuration not stated) ?
KCNQ2 inh: inactive; KCNQ2 inh baseline: -0.76

What do the screens show for `Cn1c(NCC(O)c2ccccc2)nc2c1c(=O)n(Cc1ccc(Cl)cc1)c(=O)n2C` (configuration not stated)?
KCNQ2 inh: inactive; KCNQ2 inh baseline: -2.2

How did COc1ccc(CCn2c(C)c(C(C)=O)c3cc(OC(=O)c4ccco4)ccc32)cc1OC do in these assays?
KCNQ2 inh: inactive; KCNQ2 inh baseline: -0.43

What do the screens show for `Cc1cc(-c2cccc(Br)c2)c(C#N)c(N)n1`?
KCNQ2 inh: inactive; KCNQ2 inh baseline: 0.84

What do the screens show for `CCOc1ccc(S(=O)(=O)N2CCN(C(=S)NCc3ccco3)CC2)cc1`?
KCNQ2 inh: inactive; KCNQ2 inh baseline: -1.83
